Bioassay records: PubChem, Broad Institute
A1 inh: A1 inhibition | MEF A1-2A-BIM cells, caspase-Glo luminescence, 3 h; percent of clofoctol signal, DMSO as zero | caspase activation, % (concentration not given with the values) | 21,000 compounds, 0.51% hits | AID 2241;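 active = most replicate scores above 10, or exactly half above 10 with mean activity above 10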;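 also: effector caspase 3 and 7 activity cleaving a DEVD luciferin substrate; 50 nL library stock added to about 30 µL; numbers are from one replicate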
BJeLR viability: compounds reducing viability of BJeLR cells; BJeLR fibroblasts viability, CellTiterGlo ATP luminescence, 48 h; HRASV12, hTERT and SV40 LT/ST transformed; viability loss activity score, % (test concentration not listed); 30,000 compounds, 0.64% hits; in the data active = viability loss activity score above about 50%; about a fifth of its hits are not listed in these tables;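 also: higher score means fewer live cells and less ATP luminescence; stock transfer was 50 or 100 nL into about 30 µL; 0% = vehicle wells and 100% = a reference killing control; one replicate is shown; the record names a cut of 85%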
An asterisk follows results filed as active; nt = not tested or not shown; & = joins results of further samples. Not all compounds are listed, so the mix of outcomes need not match the whole.

Values run as follows: A1 inh | BJeLR viability
> Cc1ccc(S(=O)(=O)Nc2ccc3c(c2)C(=O)N([C@H](C)CO)C[C@@H](C)[C@H](CN(C)C(=O)Nc2c(C)noc2C)O3)cc1
  0.3 | -5.1
> CN1CCCCC1CCN1c2ccccc2Sc2ccc(S(C)=O)cc21 (stereo not given)
  0.6&0.0 | -0.6&0.0
> C[C@@H]1CN([C@@H](C)CO)C(=O)c2cccc(NC(=O)C3CC3)c2O[C@@H]1CN(C)S(C)(=O)=O
  nt | 0.3
> Cc1cc(C)cc(CC(C(=O)O)C(C)C(=O)NCc2ccccc2)c1 (stereo not given)
  -0.6 | -0.4
> C[C@@H]1CN([C@H](C)CO)C(=O)c2cccc(NC(=O)C3CCCCC3)c2O[C@H]1CN(C)C(=O)Nc1ccc2c(c1)OCO2
  nt | -7.4
> Cc1ccc(S(=O)(=O)N(C)C[C@H]2Oc3c(NS(=O)(=O)c4cn(C)cn4)cccc3C(=O)N([C@@H](C)CO)C[C@@H]2C)cc1
  nt | 0.7
> C[C@H](CO)N1C[C@H](C)[C@H](CN(C)C(=O)Nc2ccc(F)cc2)Oc2c(NC(=O)Nc3ccc(F)cc3)cccc2C1=O
  nt | 2.1
> C[C@@H]1CN([C@H](C)CO)C(=O)c2cccc(NC(=O)Nc3ccccc3)c2O[C@H]1CN(C)S(=O)(=O)c1ccc(Cl)cc1
  nt | -2.6
> O=c1oc(-c2cc3ccccc3o2)nc2sc3c(c12)CCCC3
  -1.2 | 3.2
> C=CCN(C(C)=O)c1nc(C)c(Br)c(OC)n1
  -0.5 | -2.1
> CC(CN(C)Cc1ccccc1)OC(=O)C1COc2ccccc2O1 (stereo not given)
  nt | -3.3
> CC(C)NC(=O)Nc1cccc2c1O[C@@H](CN(C)S(=O)(=O)c1ccccc1)[C@H](C)CN([C@H](C)CO)C2=O
  nt | -0.5
> C[C@H]1CN([C@@H](C)CO)C(=O)c2cc(NC(=O)CCCCCC(=O)Nc3ccccc3N)ccc2O[C@@H]1CN(C)Cc1ccncc1
  nt | 0.2
> FC(F)(F)COc1nc(NCCOC23CC4CC(CC(C4)C2)C3)nc(OCC(F)(F)F)n1
  -0.4 | 11
> Cc1ccn2cc(CCNC(=O)c3ccc(C(F)(F)F)cc3)nc2c1
  0.6 | 1.5
> C[C@@H]1CN([C@H](C)CO)C(=O)c2cc(N(C)C)ccc2O[C@@H]1CN(C)S(=O)(=O)c1cn(C)cn1
  -0.2 | -1.1
> Cc1ccc(S(=O)(=O)N(C)C[C@H]2Oc3ccc(NC(=O)CCC(F)(F)F)cc3C(=O)N([C@H](C)CO)C[C@H]2C)cc1
  0.2 | 3.4
> C[C@@H]1CN([C@@H](C)CO)C(=O)c2cc(NC(=O)Cn3cnnn3)ccc2O[C@@H]1CN(C)Cc1ccccc1
  0.0 | 0.3
> COc1cccc(-n2c(=S)sc3c(=O)n(-c4ccccc4)c(SCC4OCCO4)nc32)c1
  0.5 | 0.7
> C/C=C(\C)C(=O)OC1C(OC(=O)/C=C(/C)CC(=O)O)C2(CO)C(O)CC3(C)C(=CCC4C5(C)CCC(OC6OC(C(=O)O)C(O)C(OC7OC(C)C(O)C(OC8OC(CO)C(O)C(O)C8O)C7O)C6O)C(C)(C)C5CCC43C)C2CC1(C)C (stereo not given)
  -3.2 | 67*
> CCc1cccc(NC(=O)C2CCN(Cc3cnn(-c4ccccc4)c3-n3cccc3)CC2)c1
  -0.6 | -2.3
> C[C@@H]1CN([C@@H](C)CO)C(=O)c2cccc(NC(=O)c3ccc(-c4nccs4)cc3)c2O[C@H]1CN(C)S(C)(=O)=O
  nt | 2.6
> C[C@H]1CN([C@@H](C)CO)C(=O)c2cccc(NS(C)(=O)=O)c2O[C@H]1CN(C)C(=O)Nc1ccc2c(c1)OCO2
  nt | -0.8
> CNCC(O)c1ccc(OC(=O)C(C)(C)C)c(OC(=O)C(C)(C)C)c1 (stereo not given)
  -1.4 | -11
> Cc1cc(I)ccc1-n1[nH]c(C(F)(F)F)cc1=O
  0.0 | 0.6
> CCc1ccc(OCCCC(=O)NCc2ccco2)cc1
  1.1 | 3.1
> CN(C)CCN(Cc1cccs1)c1ccccn1
  -0.3 | 4.4
> CCOc1ccc2c(c1)sc(=NC(=O)c1ccc(S(=O)(=O)N3CCc4ccccc43)cc1)n2C
  nt | 1.2
> C[C@H](CO)N1C[C@H](C)[C@@H](CN(C)C)Oc2c(NS(=O)(=O)c3cccs3)cccc2C1=O
  nt | -2.6
> CC(C)NC(=O)Nc1ccc2c(c1)C(=O)N([C@@H](C)CO)C[C@@H](C)[C@H](CN(C)Cc1ccc(Oc3ccccc3)cc1)O2
  0.0 | -3.8
> C[C@@H]1CN([C@H](C)CO)C(=O)c2cc(NC(=O)CCCN(C)C)ccc2O[C@H]1CN(C)Cc1ccc2c(c1)OCO2
  -0.5 | -1.4
> CCOC(=O)c1cnn(CCOC(=O)c2ccccc2F)c1NC(=O)c1ccccc1F
  0.3 | 2.1
> CCc1ccc(S(=O)(=O)Nc2ccc3oc(=O)sc3c2)cc1
  -0.6 | 0.7
> Cc1noc(C)c1NC(=O)Nc1ccc2c(c1)C(=O)N([C@H](C)CO)C[C@@H](C)[C@@H](CN(C)C(=O)Nc1c(C)noc1C)O2
  0.4 | -5.4
> COc1ccc(S(=O)(=O)N(C)C[C@H]2Oc3ccc(NC(=O)CCCN(C)C)cc3C(=O)N([C@@H](C)CO)C[C@H]2C)cc1
  -1.0 | 5.7
> CC(C)(C)NC[C@@H](O)COc1cccc2c1CCCC2=O
  0.5 | 0.8
> O=C(Nc1cc2c(ccc3ccccc32)oc1=O)c1ccccc1
  0.0 | -0.5
> COc1ccc(NC(=O)N(C)C[C@H]2Oc3ccc(NC(=O)Nc4c(C)noc4C)cc3C(=O)N([C@@H](C)CO)C[C@@H]2C)cc1
  -0.1 | 1.0
> COc1ccc(NC(=O)Nc2ccc3c(c2)C(=O)N([C@@H](C)CO)C[C@H](C)[C@@H](CN(C)Cc2ccc4c(c2)OCO4)O3)cc1
  0.7 | -2.8
> O=C(CSc1nc2ccccc2c2nc3ccccc3n12)NCc1ccco1
  0.6 | 2.2

Reprinted from the part before: four entries, then new ones.
Values run as follows: A1 inh | BJeLR viability
> O=C(Nc1cc2c(ccc3ccccc32)oc1=O)c1ccccc1
  0.0 | -0.5
> COc1ccc(NC(=O)N(C)C[C@H]2Oc3ccc(NC(=O)Nc4c(C)noc4C)cc3C(=O)N([C@@H](C)CO)C[C@@H]2C)cc1
  -0.1 | 1.0
> COc1ccc(NC(=O)Nc2ccc3c(c2)C(=O)N([C@@H](C)CO)C[C@H](C)[C@@H](CN(C)Cc2ccc4c(c2)OCO4)O3)cc1
  0.7 | -2.8
> O=C(CSc1nc2ccccc2c2nc3ccccc3n12)NCc1ccco1
  0.6 | 2.2
> C[C@@H]1CN([C@@H](C)CO)C(=O)c2cc(NC(=O)c3ccncc3)ccc2O[C@H]1CN(C)S(=O)(=O)c1ccc(Cl)cc1
  -0.1 | 2.3
> C[C@H](CO)N1C[C@H](C)[C@H](CN(C)Cc2ccc(-c3ccccc3)cc2)Oc2ccc(N(C)C)cc2C1=O
  0.6 | 0.0
> CN1C(=O)NC(c2ccccc2)C2=C1CC(C)(C)CC2=O (stereo not given)
  0.1 | 5.0
> CN(Cc1ccccc1)C(=O)c1cc(S(=O)(=O)N2CCCC2)cn1C
  0.4 | -5.9
> COc1ccc2c3c([nH]c2c1)[C@@H]1C[C@@H]2C(OC(C)=O)=COC(C)C2CN1CC3 (stereo not given in full)
  0.4 | 1.4
> C[C@@H]1CN([C@H](C)CO)C(=O)c2cccc(NC(=O)Nc3ccc(F)cc3)c2O[C@@H]1CN(C)Cc1ccc(Cl)c(Cl)c1
  nt | 6.2
> C[C@@H]1CN([C@@H](C)CO)C(=O)c2cccc(NC(=O)c3ccncc3)c2O[C@H]1CN(C)Cc1ccc(Oc2ccccc2)cc1
  nt | -2.8
> CC(C)NC(=O)N(C)C[C@@H]1Oc2c(NS(=O)(=O)c3ccccc3)cccc2C(=O)N([C@@H](C)CO)C[C@H]1C
  nt | 2.8
> CCCCn1nc(NS(=O)(=O)c2ccc(C)cc2)c2cc3cccc(C)c3nc21
  -0.2 | 0.1
> OCC(O)C1OC(Nc2ccc(Cl)cc2)C(O)C1O (stereo not given)
  0.6 | -3.5

Further entries
structure | A1 inh | BJeLR viability
C[C@@H]1CN([C@H](C)CO)C(=O)c2cc(NC(=O)CCC(F)(F)F)ccc2O[C@H]1CN(C)C(=O)Nc1ccc2c(c1)OCO2 | 0.0 | -0.8
Cc1ccc(S(=O)(=O)Nc2cccc3c2O[C@@H](CN(C)C(=O)Nc2ccc4c(c2)OCO4)[C@H](C)CN([C@H](C)CO)C3=O)cc1 | nt | 2.2
CC1(C)C(=S)NC(c2ccccc2)N1O (stereo not given) | 0.3 | 0.4
CCCCN(C(=O)Nc1cccc2ccccc12)C1CCS(=O)(=O)C1 (stereo not given) | 1.0 | -1.6
Cc1nc(COc2ccc(C(C)(C)C)cc2)ncc1S(=O)(=O)c1ccc(Cl)cc1 | 0.1 | 15
C[C@H](CO)N1C[C@H](C)[C@H](CN(C)C(=O)NC2CCCCC2)Oc2ccc(NC(=O)Cc3ccccc3)cc2C1=O | -0.2 | -3.5
C[C@@H]1CN([C@@H](C)CO)C(=O)c2cccc(NC(=O)NC3CCCCC3)c2O[C@@H]1CN(C)S(=O)(=O)c1ccc(Cl)cc1 | nt | -3.7
C[C@@H]1CN([C@@H](C)CO)C(=O)c2cc(NC(=O)Cc3ccccc3)ccc2O[C@H]1CN(C)S(=O)(=O)c1cn(C)cn1 | 0.2 | 2.0
C[C@H](CO)N1C[C@H](C)[C@H](CN(C)C(=O)NC2CCCCC2)Oc2c(NC(=O)c3cnccn3)cccc2C1=O | nt | -4.8
C[C@@H]1CN([C@H](C)CO)C(=O)c2cccc(NS(C)(=O)=O)c2O[C@H]1CN(C)S(=O)(=O)c1cccs1 | nt | -0.1
CC(C)NC(=O)c1ccc2c(=O)[nH]c3c(C(=O)NC(C)C)sc(=S)n3c2c1 | 0.5 | 4.8
CNC[C@H]1Oc2ccc(NC(=O)NC(C)C)cc2C(=O)N([C@@H](C)CO)C[C@H]1C | -0.7 | 1.2
O=C(NCc1cn2ccsc2n1)c1ccccc1C(F)(F)F | 1.0 | 1.2
C[C@H]1CN([C@@H](C)CO)C(=O)c2cc(NC(=O)NC3CCCCC3)ccc2O[C@@H]1CN(C)C(=O)Nc1ccc(F)cc1 | 0.7 | -0.7
Cc1noc(C)c1NC(=O)Nc1cccc2c1O[C@H](CN(C)C(=O)Nc1ccc3c(c1)OCO3)[C@H](C)CN([C@H](C)CO)C2=O | nt | -4.9
Cc1ccc(S(=O)(=O)N(C)C[C@@H]2Oc3c(NC(=O)Nc4ccc(F)cc4)cccc3C(=O)N([C@@H](C)CO)C[C@@H]2C)cc1 | nt | -7.0
C[C@@H]1CN([C@@H](C)CO)C(=O)c2cccc(NC(=O)c3ccncc3)c2O[C@@H]1CN(C)Cc1ccc(Cl)c(Cl)c1 | nt | 0.4
NC(=O)NC(=O)Cc1nc2ccccc2s1 | -0.2 | -2.1
CC1CCC2C(C)(C)C(=O)CC[C@]2(C)C12Cc1c(O)cc3c(c1O2)CN(C(CCC(=O)O)C(=O)O)C3=O (stereo not given in full) | -0.2 | 4.5
C[C@H](CO)N1C[C@H](C)[C@@H](CN(C)C(=O)Nc2ccc(C(F)(F)F)cc2)Oc2c(NC(=O)Nc3ccc(F)cc3)cccc2C1=O | nt | -3.4
CNC(=O)Cn1cccc1C(=O)c1ccccc1C | 1.1 | -5.2
CSc1cccc(NC(=O)CSc2ncccc2C(=O)OC(C)C)c1 | -0.4 | -2.6
Nc1c(-c2ccccc2)nnn1-c1ccccc1 | nt | 1.2
C[C@@H]1CN([C@H](C)CO)C(=O)c2cccc(NC(=O)c3nc4ccccc4s3)c2O[C@H]1CN(C)C(=O)Nc1ccc(C(F)(F)F)cc1 | nt | 1.6
C[C@H](CO)N1C[C@H](C)[C@@H](CN(C)Cc2ccc3c(c2)OCO3)Oc2ccc(NC(=O)Cc3cn(C)c4ccccc34)cc2C1=O | -0.4 | -0.5
C[C@@H]1CN([C@@H](C)CO)C(=O)c2cc(NC(=O)Cc3ccccc3)ccc2O[C@@H]1CN(C)Cc1ccc(C(=O)O)cc1 | 0.3 | 4.1
O=S(=O)(NC1=NCCCN1)c1cc(C(F)(F)F)cc(C(F)(F)F)c1 | 0.1 | 2.3
Cn1cc(C2CC(=O)N(c3ccc(Br)cc3)C2=O)c2ccccc21 (stereo not given) | nt | 4.6
C[C@@H]1CN([C@H](C)CO)C(=O)c2cccc(N(C)C)c2O[C@H]1CN(C)Cc1ccccc1 | nt | 2.1
CCCN(CCC)C(=O)CC(c1ccccc1)c1cc(C)ccc1O (stereo not given) | nt | 1.4

3 records drawn at random from those above, as already listed:
structure | A1 inh | BJeLR viability
Cc1ccc(S(=O)(=O)N(C)C[C@@H]2Oc3c(NC(=O)Nc4ccc(F)cc4)cccc3C(=O)N([C@@H](C)CO)C[C@@H]2C)cc1 | nt | -7.0
NC(=O)NC(=O)Cc1nc2ccccc2s1 | -0.2 | -2.1
C[C@@H]1CN([C@H](C)CO)C(=O)c2cc(NC(=O)CCC(F)(F)F)ccc2O[C@H]1CN(C)C(=O)Nc1ccc2c(c1)OCO2 | 0.0 | -0.8

Following part:
structure | A1 inh | BJeLR viability
CCCS(=O)(=O)N1CCN(Cc2ccco2)CC1 | -0.1 | -1.9
COc1cc2[nH]c(=S)n(C3CC3)c(=O)c2cc1OC | 1.9 | 1.1
C[C@H](CO)N1C[C@H](C)[C@H](CN(C)S(=O)(=O)c2ccc(F)cc2)Oc2ccc(NC(=O)Nc3ccc4c(c3)OCO4)cc2C1=O | -0.4 | -6.5
Cc1noc(C)c1NC(=O)Nc1cccc2c1O[C@H](CN(C)C(=O)Nc1ccccc1)[C@@H](C)CN([C@H](C)CO)C2=O | nt | -4.5
